Screening results: PubChem, Johns Hopkins Ion Channel Center
KCNQ2 block – KCNQ2 potassium channel inhibitors, primary screen, cell-based, CHO-K1, FluxOR thallium flux, B-score (AID 2156); 20 min; hits give low values; only compounds with negative scores are shown here; some inactives read as strong as hits; 310,000 compounds, 1.1% hits; B-score at 10 µM;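 active = fluorescence ratio B-score at most minus 3 library SDs, with starting brightness B-score within 2 library SDs, cut at about -5.5 in these data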
Target sequence (O88943 whole entry, looked up): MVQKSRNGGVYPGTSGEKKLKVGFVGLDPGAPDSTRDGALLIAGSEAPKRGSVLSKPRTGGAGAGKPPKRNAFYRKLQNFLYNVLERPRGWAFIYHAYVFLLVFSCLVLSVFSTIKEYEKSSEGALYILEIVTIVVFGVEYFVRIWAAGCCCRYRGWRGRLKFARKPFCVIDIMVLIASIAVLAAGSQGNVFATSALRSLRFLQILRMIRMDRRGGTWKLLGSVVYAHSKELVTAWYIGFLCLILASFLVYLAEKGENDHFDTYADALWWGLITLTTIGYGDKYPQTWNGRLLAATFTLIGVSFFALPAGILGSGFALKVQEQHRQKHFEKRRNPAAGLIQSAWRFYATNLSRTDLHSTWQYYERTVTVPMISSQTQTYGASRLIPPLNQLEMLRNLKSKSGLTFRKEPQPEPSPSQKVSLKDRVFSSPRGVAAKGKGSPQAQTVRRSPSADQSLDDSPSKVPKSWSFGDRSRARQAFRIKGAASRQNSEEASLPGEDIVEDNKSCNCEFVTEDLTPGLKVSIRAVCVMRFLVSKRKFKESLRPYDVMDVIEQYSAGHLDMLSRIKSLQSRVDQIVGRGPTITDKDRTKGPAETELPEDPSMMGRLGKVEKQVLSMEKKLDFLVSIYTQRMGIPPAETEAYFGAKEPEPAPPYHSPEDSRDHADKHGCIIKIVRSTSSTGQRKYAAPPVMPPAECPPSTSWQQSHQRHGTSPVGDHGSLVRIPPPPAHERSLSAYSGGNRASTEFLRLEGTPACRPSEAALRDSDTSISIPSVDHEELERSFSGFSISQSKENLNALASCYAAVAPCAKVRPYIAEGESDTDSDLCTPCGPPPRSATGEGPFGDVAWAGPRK
KCNQ2 block baseline – further read-out of KCNQ2 block, marked with its call; B-score; measured here: initial fluorescence intensity artifact check;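 brightness before thallium and not channel activity; 0 = typical well and far values either way flag optical interference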
Starred values were filed as active, the others as inactive; i = inactive.

structure | KCNQ2 block | KCNQ2 block baseline
COc1ccc(-c2cc(=O)oc3c(C)c(O)c(CN(C)C)cc23)cc1 | i | -0.13
O=C(Nc1nccs1)c1cc(-c2ccccc2)nn1-c1ccccc1 | i | 0.93
Cc1cc(OCC(=O)Nc2nccs2)c2c(C)cc(=O)oc2c1 | i | -1.69
O=C1N/C(=N\N=C\c2ccco2)SC1Cc1ccc(F)cc1 (stereo not given) | i | 0.54
CCCCn1c(N)c(NCc2ccccc2)c(=O)[nH]c1=O | i | 0.48
O=S1(=O)CCOCCCN1Cc1ccccc1 | i | 0.91
CCOC(=O)CNC(=O)N1CCCC(N(C)CCc2ccccc2)C1 (stereo not given) | i | -0.21
NC(=O)CC(NC(=O)c1ccccc1)c1ccc(NCCCN2CCCC2=O)c([N+](=O)[O-])c1 (stereo not given) | i | 0.67
Cc1ccc(-n2ncc3c(=O)n(CC(=O)N(C)C)cnc32)cc1 | i | -0.68
CC(=O)Nc1ccc(NC(=O)CSc2nnc(C3CC3)n2C)cc1 | i | 0.69
COc1cc(C2NC(=S)NC(C)=C2C(=O)OC(C)C)ccc1OC(C)C (stereo not given) | i | 2.07
CC1(C)C(=O)N(c2ccccc2)C1c1ccccc1O (stereo not given) | i | -0.19
Cn1c(SCC(=O)O)nnc1C1CCCCC1 | i | 1.75
COc1ccc(OC)c(NC(=O)CCn2ccnc2)c1 | i | 1.13
CSCC[C@H](NC(=O)[C@H](Cc1ccccc1)n1c(=O)[nH]c2ccccc2c1=O)C(=O)NCC1CCC(C(=O)O)CC1 (stereo not given in full) | i | -1.09

(more compounds)
structure | KCNQ2 block | KCNQ2 block baseline
CCn1ccnc1CN(C)C(=O)c1cc(COc2c(F)cccc2F)on1 | i | 0.74
COc1ccc(NC(=O)c2cc(OC)c(OC)c(OC)c2)cc1S(=O)(=O)N1CCCCC1 | i | 2.26
CCCCCCCC[n+]1c(C)n(-c2ccccc2)c2ccc(NC(C)=O)cc21 | i | 1.1
O=C(c1cccs1)N1CCN(C2CCCCC2)CC1 | i | -0.05
Cc1cc(S(=O)(=O)NCC(C)C)ccc1OCC(=O)NC1CC1 | i | 0.65
COc1ccc2nc3ccccc3nc2c1 | i | 2.86
O=C(Nc1ccccc1)Nc1cccn(Cc2c(F)cccc2Cl)c1=O | i | -0.1
COc1ccc(S(=O)(=O)NCC2CCCN(Cc3cn(C)nc3C)C2)cc1 (stereo not given) | i | -0.05
COC(=O)c1c(NC(C)=O)sc2c1CCCC2 | i | 1.43
C/C(=N\N1C(=O)c2ccccc2C1=O)c1cccc([N+](=O)[O-])c1 | i | -0.73
CCN(CC)Cc1nc2c(c(=O)[nH]1)C1(CCCCC1)Cc1ccccc1-2 | i | 1.81
COc1ccc(N(CC(=O)NC2CC2)S(=O)(=O)c2ccccc2)cc1 | i | 0.82
CC(=O)Nc1sc(NC(=O)c2ccc([N+](=O)[O-])cc2)nc1-c1cccs1 | i | -0.85
COCCn1c(-c2ccc(NC(C)=O)cc2)nc2c1c(=O)[nH]c(=O)n2CC(C)C | i | 1.4
C/C(Cl)=C\Cn1c(N2CCCC2)nc2c1c(=O)n(C)c(=O)n2C | i | -2.45

Record cards, as listed above. Order of values: KCNQ2 block, KCNQ2 block baseline
COc1ccc(S(=O)(=O)NCC2CCCN(Cc3cn(C)nc3C)C2)cc1 (stereo not given) as listed: i, -0.05
COC(=O)c1c(NC(C)=O)sc2c1CCCC2 as listed: i, 1.43

The results go on.
structure | KCNQ2 block | KCNQ2 block baseline
CCOC(=O)c1ccc(-n2c(CCC(=O)O)ccc2-c2cccs2)cc1 | i | 0.01
COCC(=O)N/N=C\c1ccc(OC/C=C/c2ccccc2)c(OC)c1 | i | 1.36
COc1cc(Cl)c(C)cc1NC(=O)CSc1nnc(-c2cccnc2)n1Cc1ccco1 | i | -0.21
O=C(CCC1COc2ccccc2O1)Nc1ccccn1 (stereo not given) | i | 1.19
O=C(COc1ccccc1)Nc1ccc(-c2ccc(N3CCOCC3)nn2)cc1 | i | 1.19
Cc1c(NC(=O)/C(C#N)=C/c2c(N3CCCCC3)nc3ccccn3c2=O)c(=O)n(-c2ccccc2)n1C | i | -0.72
Cc1cccc(C)c1NC(=O)C1(N2CCN(C(=O)c3ccco3)CC2)CCCCC1 | i | -0.05
Cc1ccc(OCc2cc(C(=O)N3CCN(C4CCCCC4)CC3)no2)cc1C | i | 0.46
O=C(c1ccccc1)c1cc(-c2ccccc2)on1 | i | 1.99
Cc1ccc(N2CCN(CC(O)COc3cccc4ccccc34)CC2)cc1 (stereo not given) | i | -1.23
CC(C)c1ccccc1OCCNC(=O)c1cncc(Br)c1 | i | 2.19
Cc1ccc(F)c(N=Cc2c(O)c3ccccc3oc2=O)c1 | i | 0.3
CCC(C)(C)NC(=O)CN(C(=O)CNS(=O)(=O)c1ccccc1)c1ccc2c(c1)OCCO2 | i | -2.03
Cc1cc(N=Nc2ccc(Cl)cc2)cc(CN2CCOCC2)c1O | i | -1.34
Cc1ccc(OCc2n[nH]c(=S)n2N)cc1C | i | 0.55

(next part)
structure | KCNQ2 block | KCNQ2 block baseline
COCCCN1C2=C(C(=O)CC(C)(C)C2)C(c2ccc(OC)c(OC)c2)C2=C1CC(C)(C)CC2=O | i | -0.66
COC(=O)c1ccccc1NC(=O)COC(=O)CSc1nnc(N)s1 | i | 1.07
CC(C)(C)C(=O)Nc1nc2cc3c(cc2s1)OCO3 | i | 0.84
O=C(CN1C(=O)NC2(CCCC2)C1=O)OCCOc1ccccc1 | i | 0.36
COc1ccccc1N1CCN(S(=O)(=O)c2cc3c(cc2C)NC(=O)CO3)CC1 | i | 2.56
Brc1ccc(-c2nc3ncccn3c2Nc2ccc3c(c2)OCCO3)o1 | i | 0.67
CCCN1CCN(C(=O)Cn2cnc3ccc(S(=O)(=O)N4CCC(C)CC4)cc3c2=O)CC1 | i | 0.62
O=C(NCc1nc2ccccc2[nH]1)C1=C[C@H](c2ccccc2)C[C@H](OCc2ccc(CO)cc2)O1 | i | -2.16
COCCCn1c(O)c(/C=C2\N=C(C#N)C(=Nc3ccc(C)cc3)O2)sc1=S | i | 1.77
CC(C)Oc1cccc(C(=O)C2CCCN(C(=O)c3ccccn3)C2)c1 (stereo not given) | i | 0.61
COC(=O)[C@H](C)NC(=O)Nc1ccccc1F | i | 1.42
CCOC(=O)c1c(C)[nH]c(C(=O)NCCN2CCOCC2)c1C | i | 0.17
CCN(CCn1cccn1)C(=O)CC1C(=O)NCCN1Cc1ccc(F)cc1 (stereo not given) | i | 0.71
Clc1ccc(-n2nnnc2-c2cnc(-c3ccncc3)nc2-c2cccs2)cc1 | i | 2.02
O=C(Cc1ccc(F)cc1)N1CCC(N2CCC(C(=O)N3CCOCC3)CC2)CC1 | i | 1.31

New compounds follow
structure | KCNQ2 block | KCNQ2 block baseline
Cc1ccc(C)c(S(=O)(=O)N2CCN(C(=O)C3CCN(C(=O)c4ccc(F)cc4)CC3)CC2)c1 | i | -1.09
Nc1ccccc1SCC(=O)Nc1ccc(N2CCOCC2)cc1 | i | 0.34
COc1cc2c(cc1OC)CN(CC(=O)Nc1ccc3c(c1)OC(F)(F)O3)CC2 | i | -1.04
CCN=C1S/C(=C\c2ccc(Sc3ccc(Cl)cc3)o2)C(=O)N1CC | i | -0.14
CC1CCN(CCCOc2ccc(Cl)cc2Br)CC1 | i | -2.49
c1coc(-c2ncc[nH]2)c1 | i | 1.65
O=C(COc1ccc(Cl)cc1Cl)NNC(=S)NCc1ccco1 | i | 2.72
N#CC1=C(N)OC2=C(C(=O)CCC2)C1c1ccsc1 (stereo not given) | i | 0.18
O=C1C(Cc2ccccc2)Nc2ncnc(N3CCN(c4ccccc4)CC3)c2N1Cc1ccc(Cl)cc1 (stereo not given) | i | -2.76
CCCCNCc1nc2ccccc2c(=O)[nH]1 | i | 0.25
COC(=O)c1ccccc1NC(=O)Oc1ccc(F)cc1 | i | 0.5
COc1cccc(/C=C2/SC(=O)N(C)C2=O)c1OCc1ccc(C(=O)O)cc1 | i | 0.13
CCOc1ccc(C(=O)/C=C/c2ccccc2C(F)(F)F)cc1 | i | -0.11
O=C(NC1CCCC1)c1cccnc1N1CCCCCC1 | i | 2.82
O=C(CN(Cc1ccccc1)S(=O)(=O)c1ccc2c(c1)OCCO2)N/N=C/c1ccc(F)cc1 | i | -1.1

More results follow.
structure | KCNQ2 block | KCNQ2 block baseline
O=S(=O)(c1ccccc1)c1ccc(N2CCCCCC2)cc1 | i | -0.49
COc1ccc(-n2c(SCC(=O)NCC3CCCO3)nc3ccccc32)cc1 (stereo not given) | i | -0.05
Cn1c(=O)cc(OCC(=O)N2CCCc3ccccc32)c2ccccc21 | i | -0.88
CC1=NN(c2nc(-c3ccc(C)cc3)cs2)C(=O)C1N=Nc1ccccc1O (stereo not given) | i | -0.37
Cc1nc(N2CCNCC2)c2c3c(sc2n1)CCCC3 | i | 1.15
Cn1ncc([N+](=O)[O-])c1C(=O)NC1CCCCCC1 | i | -0.11
Cc1ccc(-c2csc(CC(N)=O)n2)cc1 | i | -0.87
COc1ccc(OC)c(CNc2c(C=O)c(=O)[nH]c3ccccc23)c1 | i | 0.42
N#CC(Cc1ccccc1)(Cc1ccccc1)C(=O)NN | i | 0.57
O=C(Nc1ccccc1-c1ccccc1)NC1CC2CCCC(C1)N2CCc1ccccc1 (stereo not given) | i | 1.85
CC(=O)c1ccc(N2CCN(c3ccc(S(=O)(=O)N4CCN(C)CC4)cn3)CC2)cc1 | i | 2.57
COc1ccc(S(=O)(=O)CC(=O)c2cc3cccc(C)c3oc2=O)cc1 | i | -0.22
O=C(COC(=O)c1ccccc1)NCC1CCCO1 (stereo not given) | i | -0.15
Cc1ccc(S(=O)(=O)N2CCCCC2)cc1NC(=O)Cn1c(=O)cnc2ccccc21 | i | 1.63
O=C(Nc1ccc(Cl)cc1)NC1CCCc2ccccc21 (stereo not given) | i | -0.99

4 entries from above in another layout.
Compound: Cc1ccc(S(=O)(=O)N2CCCCC2)cc1NC(=O)Cn1c(=O)cnc2ccccc21
  KCNQ2 block: i | KCNQ2 block baseline: 1.63
Compound: N#CC(Cc1ccccc1)(Cc1ccccc1)C(=O)NN
  KCNQ2 block: i | KCNQ2 block baseline: 0.57
Compound: O=C(Nc1ccc(Cl)cc1)NC1CCCc2ccccc21 (stereo not given)
  KCNQ2 block: i | KCNQ2 block baseline: -0.99
Compound: Cn1c(=O)cc(OCC(=O)N2CCCc3ccccc32)c2ccccc21
  KCNQ2 block: i | KCNQ2 block baseline: -0.88

Other results
structure | KCNQ2 block | KCNQ2 block baseline
Clc1cccc(Cl)c1-c1noc(-c2ccno2)n1 | i | -0.8
COc1ccc(N2CCCC2)c(NC(=O)c2ccc(Br)o2)c1 | i | -0.01
COc1ccc2[nH]c3c(=O)n(CCc4ccccc4)cnc3c2c1 | i | 0.49
O=C(CN1CCCC1)Nc1ccc(NC(=O)Nc2ccccc2Cl)cc1 | i | -0.98
CC(C)(C)C(=O)Nc1cccc(-c2cc(-c3c(Cl)cccc3Cl)no2)c1 | i | -0.95
COc1ccccc1OCC(=O)NCC1CCCN(C(=O)c2ccccc2SC)C1 (stereo not given) | i | -0.03
N#Cc1c(N2CCCC(O)C2)nc(N)c2c(N)nc3c(c12)CC(=O)N3C12CC3CC(CC(C3)C1)C2 (stereo not given) | i | -1.2
c1coc(CNc2c3c(nc4ccccc24)CCC3)c1 | i | 3.33
C=CCOc1ccc(/C=C/C(=O)OCC(=O)NCC2CCCCC2)cc1 | i | 0.79
CCC1(CC)Cc2ccccc2-c2nc(NCCO)[nH]c(=O)c21 | i | -0.6
Cc1ccc(C)c(Cn2nnc3c(=O)[nH]c(C4CCCN(C(=O)C5CCCCC5)C4)nc32)c1 (stereo not given) | i | 0.13
O=C1CCC2(CC1)NC(=O)N(c1ccccc1)N2 | i | -1.78
O=c1[nH]c(/C=C\c2cccnc2)c([N+](=O)[O-])c(=O)[nH]1 | i | 0.33
O=C(COc1coc(CN2CCCc3ccccc32)cc1=O)Nc1cccc([N+](=O)[O-])c1 | i | -2.24
O=C(/C=C/c1ccco1)NCC1COc2ccccc2O1 (stereo not given) | i | 1.2

Further results follow.
structure | KCNQ2 block | KCNQ2 block baseline
CC1CCCC(C)N1NC(=S)Nc1ccc(OC(F)F)cc1 (stereo not given) | i | -0.46
COc1ccc(S(=O)(=O)Nc2cc(SCC(=O)O)c(O)c3ccccc23)cc1 | i | -2.08
COc1cc(-c2nc(-c3ccc4c(c3)-c3ccccc3S4(=O)=O)c(-c3ccccc3)[nH]2)cc(OC)c1OC | -7.01* | -0.8*
O=C(O)CSC12CC3CC(C1)CC(C(=O)O)(C3)C2 | i | 1.07
CCC1CCCCN1C(=O)NC(=O)c1ccccc1 (stereo not given) | i | -1.14
COc1cccc(C2CC(c3ccccc3C)n3nc(N)nc3N2)c1 (stereo not given) | i | -1.74
CCc1ccc2oc(=O)cc(CN3CCOCC3)c2c1 | i | 1.54
C/C(=N\Nc1ccc(S(=O)(=O)Nc2ccccc2)cc1[N+](=O)[O-])c1ccc(N2CCOCC2)cc1 | i | 1.12
O=C(CSc1nc2c(sc3ccccc32)c(=O)n1CCCN1CCOCC1)NCC1CCCO1 (stereo not given) | i | 1.59
CC(=O)N/C(=C\c1ccc(F)cc1)C(=O)NC(Cc1c[nH]c2ccccc12)C(=O)O (stereo not given) | i | 1.84
CCc1nc2ccc(C(=O)N3CCN(c4ccc([N+](=O)[O-])cc4)CC3)cc2nc1CC | i | 0.43
COc1cc(C)c(/C=C(\C#N)C(=O)Nc2ccc(C)cc2)cc1C(C)C | i | 0.01
Cc1ccc(-c2noc(C3CCCN(C(=O)c4ccc(C(C)(C)C)cc4)C3)n2)o1 (stereo not given) | i | -0.1
COc1ccc(OCCCC(=O)OCC(=O)Nc2c(C)nn(-c3ccccc3)c2C)cc1 | i | 2.3
CN(C)/N=C/c1ccc(OC(=O)c2cccc([N+](=O)[O-])c2)cc1 | i | -0.44
CCc1cc2c(=O)c(-c3ccc(F)cc3)c(C)oc2cc1OCC(=O)O | i | -1.17

Not all compounds are listed (hit frequency here may not be typical).
